Screens (PubChem)
Calb FLC = C. albicans growth inhibition with fluconazole, primary screen, CaCi-2 strain, Alamar Blue fluorescence; growth inhibition, % (test concentration not listed); 300,000 compounds, 0.57% hits; C. albicans CaCi-2 (fluconazole-resistant clinical isolate) + fluconazole, 48 h; AID 1979, 2009;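 active means most replicates above 75%; inconclusive means exactly half above 75%; inactive means most below 75%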;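 further: all wells also contain fluconazole at 8 µg/ml as a sub-toxic cotreatment; 0% = median of DMSO wells and 100% = median of geldanamycin control wells; wells of about 8 µL received 7.5 nL stock; the first replicate is given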
Bfl-1 A1 inh = caspase 3/7 activation in MEF A1-2A-BIM cells, primary screen, A1 inhibitor project, cell-based, luminescence, HTS; Caspase-Glo 3/7 luminescence, 3 h; percent of clofoctol response, vehicle zero; 330,000 compounds, 0.066% hits; caspase activation, % (no concentration beside the values);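 active means over half of replicate activation scores above 10%, or exactly half above 10 with the replicate mean above 10; inconclusive means replicate mean below 10 yet half the replicates above 10; inactive means over half of replicates below 10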;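 further: wells of about 30 µL received 50 nL stock; many hits fall short of the cut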
RanGTP-Impb inh = inhibitors of RanGTP-importin-beta interaction, primary screen, biochemical, FRET, CFP-Ran, YFP-importin-beta, homogeneous. Ran GTPase (GTP-bound) - importin-beta complex. cell-free CFP-Ran/YFP-importin-beta FRET ratio. AID 2216, 2009. inhibition, % (test concentration not listed). 300,000 compounds, 1.1% hits;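 active means most replicates above 15%; inconclusive means exactly half above 15%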;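 further: 0% = DMSO wells and 100% = Ran loaded with GDP instead of GTP; wells of about 40 µL received 100 nL stock; the first replicate is given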
UCH37 inh = inhibitors of human UCH37 deubiquitinase, primary screen, biochemical, Ub-AMC cleavage, fluorescence; purified proteasome/UCH37; inhibition, % (test concentration not listed); 330,000 compounds, 0.33% hits; AID 588478, 2011;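 active means mean of two replicates above 20%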;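 further: 0% = compound-free wells with enzyme and 100% = wells lacking proteasome; stock transfer was 100 nL into about 20 µL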
Target sequence (Q9Y5K5 whole entry, looked up): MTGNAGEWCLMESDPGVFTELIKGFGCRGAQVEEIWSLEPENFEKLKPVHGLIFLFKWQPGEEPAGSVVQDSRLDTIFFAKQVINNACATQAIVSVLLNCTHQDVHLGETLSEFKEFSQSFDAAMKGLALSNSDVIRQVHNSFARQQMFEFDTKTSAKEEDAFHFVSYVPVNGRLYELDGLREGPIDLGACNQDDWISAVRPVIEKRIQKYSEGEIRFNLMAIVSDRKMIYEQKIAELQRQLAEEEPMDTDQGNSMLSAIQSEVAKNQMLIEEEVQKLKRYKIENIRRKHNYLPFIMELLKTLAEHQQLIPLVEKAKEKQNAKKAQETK
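Material: human UCH37 enzyme supplied as purified proteasome complex / Amount: 0.15 nM proteasome as dispensed / Buffer or medium: pH 7.4 Tris-HCl (50 mM) with ovalbumin, ATP-MgCl2, DTT / Times: preincubation 30 min, reaction 25 min, room temperature / Technique: AMC fluorescence from Ub-AMC cleavage, excitation 355 nm, emission 460 nm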
Beta cell apopt = inhibitors of cytokine-induced beta cell apoptosis, primary screen, luminescence; protection from apoptosis, % (no concentration beside the values); INS-1E cytokine-induced death, ATP luminescence, 48 h; percent of positive-control rescue, neutral wells zero; 300,000 compounds, 0.8% hits; AID 435005, 2010;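 active means all replicates at 75% or more, or half of them and the mean; inconclusive means half reach 75% but not the mean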;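 further: 0% = cytokine-treated negative control wells and 100% = positive control rescue; higher means more ATP so stronger rescue from cytokine killing; wells of about 40 µL received 100 nL stock; the first replicate is given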
LANA-H2B inh = blockers of LANA interaction with H2A/H2B – biochemical, FP readout, HTS, primary screen. AID 2629, 2010. inhibition, % (no concentration beside the values). cell-free LANA-H2A/H2B peptide, fluorescence polarization. 320,000 compounds, 0.6% hits. Protein LANA1 (Human herpesvirus 8 type P (isolate GK18)), Q9QR71; in the data active means inhibition mostly above about 10%, no sharp cut-off; inactive means mostly below about 6.7%;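 further: stock transfer was 7.5 nL into about 10 µL; 0% = median of vehicle wells and 100% = median of positive control wells; one replicate is shown; the record names a cut of 25% in any replicate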
T cruzi repl = inhibitors of intracellular T. cruzi growth, primary screen, luminescence, NIH3T3 host cells. T. cruzi beta-gal in NIH3T3, 90 h. inhibition, % (test concentration not listed). 300,000 compounds, 1.4% hits. AID 1885, 2009;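 active means mean inhibition across valid replicates above about 55%, limit read from the data; inconclusive means mean below that limit but half or more replicates reach it; inactive means mean below it, under half of replicates reach it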;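 further: signal also drops with host cell toxicity which is not excluded here; 0% = plate median of DMSO wells and 100% = zero luminescence signal; higher percent means less beta-gal luminescence so fewer parasites; stock transfer was 50 nL into about 50 µL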
Beta2AR agonist = beta2AR agonists driving receptor internalization, primary screen, cell-based, FAP fluorogen, flow cytometry | 340,000 compounds, 0.43% hits | Am2.2-beta2AR cells; reference of the scale not given here | Beta-2 adrenergic receptor (Homo sapiens), P07550 | response, % (no concentration beside the values);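 active means response above a set limit, near 3 SD of response in nonfluorescent compounds, cut at about 42% in these data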;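 further: stock transfer was 100 nL into about 11 µL; a reference agonist was the positive control; negative values mostly stem from fluorescent compounds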
Target sequence (P07550 whole entry, looked up): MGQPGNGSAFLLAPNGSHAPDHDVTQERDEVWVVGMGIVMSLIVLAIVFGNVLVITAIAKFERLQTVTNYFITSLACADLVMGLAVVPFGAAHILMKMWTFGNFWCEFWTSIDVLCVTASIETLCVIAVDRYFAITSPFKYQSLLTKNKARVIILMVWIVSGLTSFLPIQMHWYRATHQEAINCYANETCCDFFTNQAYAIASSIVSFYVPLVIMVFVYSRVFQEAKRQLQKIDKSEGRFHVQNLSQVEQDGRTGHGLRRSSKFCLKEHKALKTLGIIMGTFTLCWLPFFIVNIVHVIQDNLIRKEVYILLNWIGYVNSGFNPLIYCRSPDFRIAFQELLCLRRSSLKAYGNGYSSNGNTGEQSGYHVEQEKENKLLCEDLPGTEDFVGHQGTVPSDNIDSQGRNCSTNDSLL
An asterisk follows results filed as active; ? = inconclusive; / = not tested or not shown.

SMILES	Calb FLC	Bfl-1 A1 inh	RanGTP-Impb inh	UCH37 inh	Beta cell apopt	LANA-H2B inh	T cruzi repl	Beta2AR agonist
CCOC(=O)CN(C(=O)CSc1nnc(-c2ccc(OC)c(OC)c2)o1)c1ccc(F)cc1	-10	0.4	?	2.0	0	0.1	-7	4
CCOc1cc(C(=O)N/N=C/C2CC=CCC2)cc(OCC)c1OCC (stereo not given)	-37	-0.1	1.6	/	-4	0.3	-2	2
O=C(c1ccc(-c2cc(O)c3ncccc3c2)cc1)N1CCNCC1	/	0.9	/	4.7	-2	10	/	-5
CCC(C)NCCOCCOc1ccc(Br)cc1 (stereo not given)	-3	0.6	-5.6	/	/	2.2	66*	3
Cc1ccc(CN(C)C(=O)c2cccc(S(=O)(=O)N3CCN(Cc4ccccc4)CC3)c2)o1	1	-0.9	-3.9	3.3	-2	5.7	-5	-5
COc1ccc(-c2cc(C(=O)NCc3cn(C)nc3C)c3ccccc3n2)cc1OC	-1	2.4	-1.0	-3.4	/	-2.1	-5	7
CCC12CN3CC(CC)(CN(C1)C3c1ccccc1Cl)C2O (stereo not given)	-1	1.5	-0.9	-0.6	/	2.4	-7	3
O=C(Nc1nnc(/C=C/c2ccccc2)s1)c1ccco1	2	-0.2	0.2	-30	-5	-1.3	-26	-10
CCOC(=O)C1CCN(C(=O)COc2ccc(Br)cc2Br)CC1	16	0.8	6.7	0.3	0	-0.4	-4	-1
CCCc1nc(-c2ccccc2)c(-c2ccc(OC)c(OC)c2)c(=O)[nH]1	1	-0.8	?	-0.9	-1	1.4	4	-15
CN(Cc1ccccc1)C(=O)c1ccc(NC(=O)Cc2cccc(NC(=O)C3CCN(C(=O)C4CCCCC4)CC3)c2)cc1	/	-0.8	/	-1.0	-2	4.9	/	4
CCS(=O)(=O)N1CCCC(C(=O)NCCN(C)Cc2ccccc2)C1 (stereo not given)	3	?	6.2	-0.5	-7	0.3	15	-4
O=C(N[C@H]1CC1c1ccccc1)c1ccc([N+](=O)[O-])cc1 (stereo not given in full)	-14	-3.9	2.5	3.8	-1	-1.3	10	-3
O=C(COc1ccc(Cl)cc1)N/N=C/c1cccc2cccnc12	-20	0.0	1.8	/	-4	-4.5	-7	0
CCN(CC)S(=O)(=O)c1ccc2c(c1)c(=O)c(C(=O)N1CCOCC1)cn2C	-16	0.1	6.7	8.0	-5	1.2	-24	4
COc1cc(S(=O)(=O)N2CCN(c3ccccn3)CC2)ccc1Br	8	-0.1	-1.5	1.0	-6	2.1	-3	-7
O=C(CN1C(=O)NC2(CCCC2)C1=O)N1CCN(S(=O)(=O)c2ccccc2)CC1	14	0.3	/	0.1	1	1.9	-6	2
CCN(CC)c1cc(C)c2cc(NC(=O)c3ccc(Br)o3)ccc2n1	38	0.8	1.3	-0.1	1	1.9	?	5
COc1ccc(CN(C(=O)c2ccco2)c2ccc(C)cc2)cc1OC	25	-0.3	4.8	0.3	-1	0.4	-24	5
Cc1cc(C)cc(N(CC(=O)N2CCOCC2)S(=O)(=O)c2ccccc2)c1	-1	0.1	-7.3	-1.0	1	-1.9	-13	-8

Look-ups from the list.
`COc1ccc(-c2cc(C(=O)NCc3cn(C)nc3C)c3ccccc3n2)cc1OC` in UCH37 inh = -3.4
`COc1cc(S(=O)(=O)N2CCN(c3ccccn3)CC2)ccc1Br` in Beta cell apopt = -6

(cont.)
SMILES	Calb FLC	Bfl-1 A1 inh	RanGTP-Impb inh	UCH37 inh	Beta cell apopt	LANA-H2B inh	T cruzi repl	Beta2AR agonist
CC1=N/C(=C/c2ccc([N+](=O)[O-])cc2)C(=O)N1c1ccc(Cl)cc1Cl	11	1.3	1.4	2.9	-2	-0.8	-9	8
C[C@H](CO)N1C[C@H](C)[C@@H](CN(C)C(=O)Nc2ccc(C(F)(F)F)cc2)Oc2ccc(NS(=O)(=O)c3ccccc3)cc2C1=O	/	0.4	/	5.5	-4	19	/	6
COCCN(C(=O)CNC(=O)c1ccco1)C(C(=O)NC1CCCC1)c1ccc(F)cc1 (stereo not given)	-10	-0.2	4.9	-0.5	-5	-1.7	-9	-3
COc1cccc2cc(C(=O)NC3CC4CCC3C4)oc12 (stereo not given)	4	-0.5	26*	2.7	0	-0.8	-10	-10
CCCCC(=O)Oc1c(S(=O)(=O)c2ccccc2)c(C)nn1C(C)(C)C	14	0.3	1.9	0.9	-11	-1.1	-19	-6
Cc1ccc(Cl)cc1N1CCN(Cc2cc(=O)n3ccsc3n2)CC1	3	0.5	0.8	-1.1	-7	-1.2	0	0
Cc1cc(C)n(Cc2ccccc2F)c(=O)c1C#N	4	0.5	1.3	4.2	/	2.1	-9	6
Cc1nc(C)n(C(C)CNC(=O)c2ccccc2)n1 (stereo not given)	10	-0.7	12	0.0	-9	6.4	-22	-3
CCOC(=O)/C=C1\SCC(=O)N1CC(=O)NC(C)c1ccc(F)cc1 (stereo not given)	-6	0.4	-2.9	-0.8	-6	/	-16	-7
Cc1cccc(NC(=O)CSc2nc3[nH]ncc3c(=O)[nH]2)c1	0	1.1	1.7	5.7	0	-1.8	-10	-2
COc1ccccc1N1CCN(S(=O)(=O)/C=C/c2ccccc2)CC1	-1	0.0	-2.5	-1.9	-2	3.3	-10	-4
CCc1cccc(C)c1NS(=O)(=O)c1cc(Br)cnc1N	1	0.3	4.0	-1.0	6	-3.1	6	1
O=c1[nH][nH]c(=S)n1C1CCCCC1	-4	0.3	-0.1	/	/	-4.0	8	/
Cc1c(NS(=O)(=O)c2ccc(N3CCCCC3)c([N+](=O)[O-])c2)c(=O)n(-c2ccccc2)n1C	-3	-0.2	7.4	-1.4	-4	1.9	4	-16
Cc1ccc2nc(-c3ccncc3)cc(-c3ccccc3)c2c1	-7	0.2	-3.7	-4.4	7	2.1	51	-3
Cc1cc(C)n(CCCNC(=O)c2ccco2)n1	/	-0.2	/	4.7	1	0.0	/	-2
COCCN(C(=O)COC(=O)CCOc1ccccc1C)c1c(N)n(Cc2ccccc2)c(=O)[nH]c1=O	-5	0.3	-0.4	4.0	/	2.6	-16	-2
CC1CCCN(C(=O)CNS(=O)(=O)c2cccs2)C1 (stereo not given)	10	-0.9	2.7	1.0	-3	3.5	-4	1
COc1ccc(/C=N/OCc2nc3c4c(ncn3n2)Oc2ccc3ccccc3c2C4c2ccccc2)cc1 (stereo not given)	-20	-0.4	-4.3	/	-1	6.8	0	2
O=C(c1ccc(F)cc1)N1CCN2C(=O)c3ccccc3C12c1ccc(Cl)cc1 (stereo not given)	8	-0.3	1.2	0.3	-6	-1.8	-6	4
C/C(=N\NC(=O)c1csc(C)c1C)c1ccc(Cl)s1	-2	0.3	0.2	/	-4	-0.3	12	-2
Oc1ccc(/C=N/Nc2ccnc3cc(Cl)ccc23)c(O)c1O	5	-0.8	-13	/	-9	-4.6	-15	106*
CCc1ccc(-c2cc3c(=O)n(CC(=O)NCCCN4CCN(Cc5ccccc5)CC4)nc(C)n3n2)cc1	-10	0.9	1.7	3.3	36	-2.7	3	20
CC(C)(Oc1ccc(Cl)cc1)C(=O)NC1=NN(c2ccccc2)C(=O)C1	27	-0.5	?	3.5	-2	-2.1	-8	18
Cc1ccc(S(=O)(=O)c2cc3c(=O)n4ccccc4nc3n(CCc3ccccc3)c2=N)cc1	13	0.4	64*	-12	/	1.2	21	9
Cc1cccn2c(=O)nc(SCC(=O)c3ccccc3)nc12	-5	0.0	1.8	2.8	/	-7.3	-7	0
CCC(C)N1C(=O)S/C(=C/c2ccc(Sc3nc4ccccc4[nH]3)o2)C1=O (stereo not given)	17	-0.5	9.0	-19	20	5.5	11	-10
COc1ccc(NC(=O)C(C)Sc2nnc(C3CC3)n2C2CC2)cc1 (stereo not given)	/	0.7	/	-2.9	-1	-3.0	/	-8
Clc1ccc(-n2nnnc2CN2CCOCC2)cc1	0	0.5	1.3	-1.2	/	-2.4	-9	8
CC1CN(C(=O)c2cccc(Oc3ccccc3)c2)CC(C)O1 (stereo not given)	/	-0.1	/	1.4	-3	9.5	4	-5
COc1cc2c(cc1OC)C(C(=O)NCC1COc3ccccc3O1)C(c1cccnc1)N(C)C2=O (stereo not given)	/	0.6	/	-0.2	-4	3.2	/	/
O=C(CCC(=O)N1CCOc2ccccc21)NCc1ccccn1	2	0.9	?	1.6	0	1.8	-9	-2
CCn1c(SCC(=O)N2CC(C)OC(C)C2)nc2c([nH]c3ccccc32)c1=O (stereo not given)	-1	-0.5	-5.0	-5.1	6	-0.2	9	7
O=C(Nc1cccc([N+](=O)[O-])c1)Nn1cnnc1	-5	0.9	2.8	1.9	1	3.6	-3	0
CC(/C=C1\SC(=O)N(CCCC(=O)O)C1=O)=C\c1ccccc1	5	-0.9	0.9	18	-4	-2.8	3	-5
O=C(NCCc1ccc(Cl)cc1)c1cc(=O)[nH]c2ccccc12	-3	0.5	3.2	-12	-2	-8.2	3	-5
CCc1cccc(NC(=O)NC2CCCCC2)c1	-8	0.0	4.6	3.5	3	0.4	2	6
Cc1ccc(C(=O)C[n+]2ccccc2C)cc1[N+](=O)[O-]	-16	-1.0	-0.6	3.8	-5	-1.1	-7	1
CCN1CCSc2ccc(C(=O)NCc3cccc(F)c3)cc21	-5	0.4	-1.0	-126	-4	-5.9	28	2
O=S(=O)(Cc1ccccc1)N1CCCCCC1	-1	-0.5	6.9	4.3	-5	-2.1	-23	3
COc1ccc(NC(=O)Cc2cccc(F)c2)cc1S(=O)(=O)Nc1ccccc1Cl	6	-0.5	0.5	6.0	3	-3.1	5	10
Cc1cc(C(=O)CSc2nnc(-c3ccccc3)o2)c(C)n1CC1COc2ccccc2O1 (stereo not given)	3	-0.8	-1.1	4.6	8	-0.1	26	-9
CC(CC(=O)OCC(=O)NCc1ccc(Cl)cc1)c1ccccc1 (stereo not given)	/	0.7	/	-1.7	-4	-1.4	/	-7
CC(=O)NNS(=O)(=O)c1ccccc1[N+](=O)[O-]	-5	0.1	-1.3	2.9	6	3.6	-3	-2
Cc1ccc(C(=O)COC(=O)CCCC(=O)Nc2cc(C(F)(F)F)ccc2Cl)cc1C	-5	0.5	-1.2	4.4	/	3.4	1	3
COc1ccc(C(=O)OCC(=O)Nc2ccc(Cl)c(C(F)(F)F)c2)c(OC)c1OC	-4	0.7	-0.4	1.6	-4	-2.4	1	-1
Cc1nc2ccccc2n1CC(=O)NCc1ccccc1	1	-1.3	-2.4	5.6	31	2.0	-28	5
O=C(COC(=O)C1=COCCO1)NCCCc1ccccc1	/	-0.7	3.6	2.2	-8	0.6	-13	4
COc1cccc(CC(NC(C)=O)C(=O)NC2CCN(C(=O)NCc3ccccc3)CC2)c1 (stereo not given)	-5	/	2.1	2.4	/	/	-3	3
